# MT1-MMP promoter: inhibitors of MT1-MMP promoter transcription, cell-based, luciferase reporter, luminescence (AID 618); MT1-MMP promoter luciferase reporter cells, luminescence; calls from a first round at 10 µM; hits with a dose series show EC50 in µM; actives 0.62% (n = 87,000);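 active means over half of the reporter light lost at 10 µM or EC50 under 50 µM; inactive means the rest and hits that failed the dose series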;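 further: actives suppress MT1-MMP promoter-driven transcription so potencies describe inhibitors; HT1080 fibrosarcoma cells; overnight exposure; toxic or luciferase-blocking compounds were not removed from the actives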
# Hsc70: small molecules displacing fluorescent ligand from Hsc70 – biochemical, fluorescence polarization, primary screen (AID 568); Hsc70 fluorescence polarization, probe displacement; higher % means a stronger effect; strong numbers were not always called active; one-dose displacement, % at 20 µM; IC50 in µM for titrated hits; 83,000 tested, under 10 active;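 active means displacement above 50% without optical interference and an IC50 on retest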;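 further: ATPase domain with a fluorescein-tagged ATP probe; 0% = vehicle and 100% = excess ADP; read after one hour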
# WNV protease inh: WNV NS2B-NS3 proteinase inhibition. P06935. WNV NS2B-NS3 protease, fluorogenic substrate Ex360/Em465; active compounds read low. z-score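 (tested at a level between 10 and 100 µM)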. actives 0.18% (n = 65,000). AID 577;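 active means z-score at -3 or under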;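 further: score is relative to mean and spread of the compound wells of a plate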
# Target sequence (P06935 1371-1501 limits assumed): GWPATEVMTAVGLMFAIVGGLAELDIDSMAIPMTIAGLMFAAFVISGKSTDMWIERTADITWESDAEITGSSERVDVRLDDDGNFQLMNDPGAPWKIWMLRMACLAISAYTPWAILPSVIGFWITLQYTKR
# Target sequence (P06935 1502-1679 limits assumed): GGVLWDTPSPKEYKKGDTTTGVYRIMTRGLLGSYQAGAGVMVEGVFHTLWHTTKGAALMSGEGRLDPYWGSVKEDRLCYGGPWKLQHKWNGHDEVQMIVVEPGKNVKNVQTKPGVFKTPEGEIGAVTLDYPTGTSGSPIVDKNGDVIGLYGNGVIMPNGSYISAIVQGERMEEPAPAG
# Active calls of the source: *; i = inactive; . = not tested or not shown.
# The line under a structure holds: Hsc70 | MT1-MMP promoter | WNV protease inh
CC(=O)Nc1ccc(S(=O)(=O)N2C3CCCC2CC(NC(=O)C2CCCCC2)C3)cc1 (stereo unspecified)
 : -0.9% | i | -1.1
Nc1c(Br)cc(Br)c(N2CCCC2=O)c1Br
 : -2.9% | i | -0.65
CCN(CC)S(=O)(=O)c1ccc(N2CCN(S(=O)(=O)c3ccc4c(c3)OCCO4)CC2)nc1
 : -0.3% | i | .
CCCS(=O)(=O)c1c(S(=O)(=O)CCC)c2c(N)cccn2c1C(=O)c1ccc(F)cc1
 : 5.3% | i | 0.24
COc1ccc(-c2cn3c(C)c(C(=O)N4CCc5ccccc5C4)sc3n2)cc1
 : -4.1% | i | 2.3
CC1(C)Oc2nc3ccccc3n2/C1=C\C#N
 : -2.6% | i | .
COc1cc(CNCCC2CCOC(C)(C)C2)ccc1O (stereo unspecified)
 : 0.5% | i | -0.65
Cc1ccc2cc3cc(C(=O)N(C)C4CCCCC4)oc3nc2c1
 : 7.9% | i | 0.45
O=C(Nc1ccc(N2C(=O)C3C4C=CC(C4)C3C2=O)cc1)Nc1cccnc1 (stereo unspecified)
 : 0.3% | i | 0.24
CC(=O)NC(CCS(C)(=O)=O)C(=O)Nc1nc(C)cs1 (stereo unspecified)
 : 0.0% | i | 1.1
COc1ccc(CN2CC(C(=O)NCCc3ccc(C)cc3)CC2=O)cc1 (stereo unspecified)
 : 2.7% | i | .
CCC1SC2=NC(C)=C(C(=O)OC)C(c3ccc(C(=O)OC)cc3)N2C1=O (stereo unspecified)
 : 3.1% | i | -0.33
O=C(O)c1ccccc1COc1ccccc1Cl
 : -1.9% | i | -0.04
CCOC(=O)c1c(NC(=O)c2cccs2)sc2c1CCN(C(=O)OCC)C2
 : -5.8% | i | -0.7
O=C(OCCN(C1=NS(=O)(=O)c2ccccc21)c1ccccc1Cl)c1ccc(Cl)cc1
 : 4.4% | i | .
O=C(Cc1cccs1)Nc1ccc(Cl)cc1
 : 0.1% | i | -0.63
C=CCSc1nc2sc(C)c(C)c2c(=O)[nH]1
 : -6.6% | i | -0.23
CC(C)CN(Cc1cc2ccccc2[nH]c1=O)C(=O)c1cccnc1
 : -5.1% | i | 0.99
CSc1nsc(SC)c1C(=O)OCC(F)(F)F
 : 1.9% | i | 2.5
Cc1ccc(-c2cc(C(=O)Nc3cnn(C(C)C)c3)no2)cc1
 : 2.1% | i | .
CN(C)CCCNCCCNC(=O)/C=N/O
 : -5.2% | i | .
COc1ccc(-c2oc3ncnc(NCCCN4CCOCC4)c3c2-c2ccc(OC)cc2)cc1
 : -9.9% | i | -0.07
COC(=O)c1cc2c(cc1Cl)SC(=NCCCN1CCOCC1)NS2(=O)=O
 : -4.6% | i | 0.02
CCOC(=O)c1sc(NS(=O)(=O)c2ccc(NC(C)=O)cc2)nc1C
 : 4.7% | i | -0.84
O=C(c1ncc[nH]1)c1ccccc1C(=O)N1CCOCC1
 : -0.9% | i | -0.54
CCCCCn1c(NC(=O)c2ccco2)c(S(=O)(=O)c2ccc(C)cc2)c2nc3ccccc3nc21
 : 1.5% | i | .
Cc1ccccc1S(=O)(=O)Cc1ccc(C(=O)N2CCN(c3ccc(F)cc3)CC2)o1
 : -1.2% | i | 0.03
C=C(C)c1ccc(C(C)(C)NC(=O)NCc2ccco2)cc1
 : 11% | i | -0.22
C=CCNC(NC(=O)c1ccccc1)(C(=O)OCC)C(F)(F)F (stereo unspecified)
 : -2.5% | i | 1.3
CCc1nn2c(=O)cc(CSc3nc4sc5c(c4c(=O)n3C)CCCC5)nc2s1
 : 1.8% | i | -0.83
CC(C)(C)NC(=O)CN(C(=O)Cn1nnc(-c2ccc(Cl)cc2)n1)C1CCN(Cc2ccccc2)CC1
 : -0.6% | i | .
COc1ccc(C(O)c2nc3ccccc3s2)cc1 (stereo unspecified)
 : 3.4% | i | 1.6
COc1ccc(C(=O)Nc2ccc(S(=O)(=O)Nc3onc(C)c3C)cc2)cc1OC
 : 3.4% | i | 0.77
COc1cccc(C2=NOC(C(=O)Nc3cccc(C(C)=O)c3)C2)c1OC (stereo unspecified)
 : -4.0% | i | 0.4
O=C(NCCCN1CCCCCC1)C1CC(=O)N(CCc2ccccc2)C1 (stereo unspecified)
 : -71% | i | -0.34
Cc1cc2c(n1-c1ccc(C(N)=O)cc1)CC(C)(C)CC2=O
 : -5.1% | i | .
Cc1ccccc1OCC(=O)N/N=C/c1cccn1C
 : 1.1% | i | .
O=C(NCc1ccc2c(c1)OCO2)c1cc2ccccc2oc1=O
 : -4.5% | i | .
COCCn1nnnc1SCC(=O)N1CCCCC1
 : 1.2% | i | 0.72
CN(C)CCN1C(=O)c2oc3ccc(Cl)cc3c(=O)c2C1c1cccc(Br)c1 (stereo unspecified)
 : 6.4% | i | -0.78

# Shown as tab-separated lines: part of the list above
compound	Hsc70	MT1-MMP promoter	WNV protease inh
CCc1nn2c(=O)cc(CSc3nc4sc5c(c4c(=O)n3C)CCCC5)nc2s1	1.8%	i	-0.83
CC(C)(C)NC(=O)CN(C(=O)Cn1nnc(-c2ccc(Cl)cc2)n1)C1CCN(Cc2ccccc2)CC1	-0.6%	i	.
COc1ccc(C(O)c2nc3ccccc3s2)cc1 (stereo unspecified)	3.4%	i	1.6

# 2 compounds from above, showing only Hsc70 and WNV protease inh.
canonical_smiles	Hsc70	WNV protease inh
Cc1ccccc1S(=O)(=O)Cc1ccc(C(=O)N2CCN(c3ccc(F)cc3)CC2)o1	-1.2%	0.03
C=C(C)c1ccc(C(C)(C)NC(=O)NCc2ccco2)cc1	11%	-0.22

# Following part:
# The line under a structure holds: Hsc70 | MT1-MMP promoter | WNV protease inh
COc1ccc(Cl)cc1NC(=O)CN(C)C(C)C(=O)NCC1CCCCC1 (stereo unspecified)
 : 0.9% | i | 1.6
O=C(CCC1CCCCC1)Nc1ccccc1O
 : -3.8% | i | 0.37
COc1ccc(-c2cc(-c3ccc(OC)cc3)[nH]n2)cc1
 : 2.5% | i | -0.7
C(=N\c1nc2ccccc2n1CCN1CCCCC1)/c1ccc2c(c1)OCO2
 : 15% | i | -0.36
O=C(NC1CCCC1)c1nc2c(nnn2Cc2cccc(Cl)c2)c(=O)[nH]1
 : -1.0% | i | -0.31
O=C(Nc1ccc(F)cc1)c1ccccc1
 : -3.1% | i | .
CCOCCCNC(=O)Cn1ncc2c(=O)oc3ccccc3c21
 : 1.6% | i | 1
O=C(NCc1cccs1)NC1CCCCC1
 : -2.7% | i | -0.58
CCCCNS(=O)(=O)c1ccc(OC)c(C)c1
 : -0.4% | i | .
C=CCNC(=O)c1c(N)n(-c2cccc(S(N)(=O)=O)c2)c2nc3ccccc3nc12
 : 3.2% | i | 1.9
Cc1cc(C)n2nc(C(=O)OCCOc3cccc(Br)c3)nc2n1
 : 1.9% | i | 0.53
O=C(CSCc1ccccc1)NCc1ccc2c(c1)OCO2
 : 3.2% | i | .
COc1ccc(OC)c(NC(=O)CSc2nnc(Cc3cccn3C)n2-c2ccc(F)cc2)c1
 : 3.0% | i | -0.04
CCc1oc2ccccc2c1C(=O)c1cc(Br)c(O)c(Br)c1
 : 0.1% | i | -0.05
COc1ccc(S(=O)(=O)N2CCN(CC(=O)Nc3cc(OC)cc(OC)c3)CC2)cc1
 : -0.2% | i | 0.93
COc1ccc(-c2cc(C(=O)O)[nH]n2)cc1OC
 : -1.1% | i | 0.57
COC(=O)c1[nH]c2ccc(C)cc2c1NC(=O)CCN1CCN(Cc2ccc3c(c2)OCO3)CC1
 : -6.3% | i | 0.62
COc1cccc(OCC(O)CN2CCC(C)CC2)c1 (stereo unspecified)
 : -3.0% | i | -0.09
CC1CN(C(=O)N[C@@H](Cc2ccccc2)C(=O)O)CC(C)O1 (stereo partly specified)
 : -0.8% | i | 0.6
Cc1ccc(S(=O)(=O)N2CC(=O)Nc3ccccc32)cc1
 : 2.3% | i | .
O=C(c1ccc(COc2ccc3c(c2)CCC3)o1)N1CCN(c2ccccc2)CC1
 : -5.9% | i | 0.32
Clc1ccc(C2CC(c3ccccc3)Nc3ncnn32)cc1 (stereo unspecified)
 : -2.8% | i | -2
CC(=O)Oc1ccc(C(=O)O)cc1OC(C)=O
 : 3.8% | i | -0.87
CC(=O)c1cccc(NC(=O)c2ccncc2)c1
 : -2.3% | i | -0.21
CCOC(=O)c1cc(C)[nH]c(=S)c1C#N
 : 4.1% | i | 0.32
CCC(C)(C)NC(=O)C(c1cccn1C)N(C(=O)Cn1nnc2ccccc21)c1ccc(OC)cc1OC (stereo unspecified)
 : 1.6% | i | .
O=C(NCCCn1ccnc1)c1cc(-c2cccs2)on1
 : -2.4% | i | 1.3
COCCn1c(C)cc2c(c1=O)C(c1ccco1)C(C#N)=C(N)O2 (stereo unspecified)
 : 2.6% | i | .
CCOC(=O)CSc1nnc(-c2ccc(S(=O)(=O)N3CCOCC3)cc2)n1-c1ccccc1
 : -7.0% | i | -1.1
COC(=O)c1nnn(-c2nonc2N)c1CSCCO
 : -3.4% | i | -0.93
CN(C)c1ccc(NC(=O)CN2C(=O)CC(c3ccccc3)=Nc3ccccc32)cc1
 : -4.6% | i | -0.97
CN(CP(=O)(O)CN(C)S(C)(=O)=O)S(C)(=O)=O
 : -6.4% | i | -0.68
O=C(CN1CCSCC1)N/N=C/c1ccc(F)cc1
 : -3.2% | i | .
CCC1SC2=NC(C)=C(C(=O)OCC(C)C)C(/C=C/c3ccccc3OC)N2C1=O (stereo unspecified)
 : 3.2% | i | .
Cc1noc(NS(=O)(=O)c2ccc(NC(=O)CSc3nnc(-c4ccccc4)n3C3CCCCC3)cc2)c1C
 : 2.4% | i | .
FC(F)(F)c1cc(-c2ccccc2)nc2ncnn12
 : 4.9% | i | .
Cc1ccc(NC(=O)CCSc2nnc(C)s2)cc1
 : -2.8% | i | .
CCN(CC)CCCNC(=O)c1cc2c(-c3ccc(Cl)cc3)nn(C)c2s1
 : 8.0% | i | 0.44
OC(COc1ccc(OCc2ccccc2)cc1)CN1CCCCC1 (stereo unspecified)
 : 6.1% | i | 0.46
CCOc1ccc(OCCSc2nnnn2C2CCCCC2)cc1
 : 1.0% | i | 0.08
O/N=C/c1cccn1-c1ccc(O)cc1
 : 2.5% | i | -0.78
O=C(CCNC(=O)c1ccc(Br)o1)NC1CCCC1
 : 1.3% | i | -0.2
Cc1ccc(-c2nc(CS(=O)CC(=O)NCc3ccccc3)c(C)o2)cc1 (stereo unspecified)
 : 4.0% | i | 1.9
COc1c(O)ccc2cnn(-c3ccccc3C)c(=O)c12
 : 8.8% | i | 0.25
O=C(c1ccccc1)N1CCN(S(=O)(=O)N2CCCCC2)CC1
 : 9.9% | i | 0.55
C1CCC(Nc2nnnn2C2CCCCC2)CC1
 : -2.2% | i | -1.3
COc1ccc(N(CC(=O)NCc2ccco2)S(C)(=O)=O)cc1Cl
 : 3.9% | i | 0.24
CC(C)CCNc1nc2c(cc1C#N)COC(C)(C)C2
 : -0.7% | i | 0.34
CCCCCCS(=O)[C@H]1CS(=O)(=O)C[C@@H]1S(=O)CCCCCC (stereo partly specified)
 : 2.9% | i | 0.4
CC(C)(C)NC(=O)Cn1nnnc1-c1nonc1N
 : -1.1% | i | 0.06
Cc1scc(C(=O)N2CCN(S(C)(=O)=O)CC2)c1-c1ccccc1
 : -3.8% | i | 1.3
CN(C)c1ccccc1C(=O)c1ccccc1N(C)C
 : -5.2% | i | -0.61
CCOC(=O)CSc1nnc2c(n1)C1(C)CCC2C1(C)C (stereo unspecified)
 : -4.9% | i | -0.86
Cc1ccccc1-c1nc(CN2CCC(C(=O)N3CCC(C(N)=O)CC3)CC2)c(C)o1
 : -3.5% | i | 0.08
CCC(Sc1ccc2nnc(-c3cccnc3)n2n1)C(=O)O (stereo unspecified)
 : -1.8% | i | -0.68
CCCCC(=O)Nc1cccc(-c2nnc(-c3ccccc3)o2)c1
 : -3.0% | i | 0.24
CC(C)CCNC(=O)COc1ccc2c3c(c(=O)oc2c1)CCC3
 : 7.2% | i | 0.63
O=C(CSc1nnc(-c2ccncc2)n1C1CCCCC1)Nc1cccc(O)c1
 : -7.5% | i | 0.12
O=C(c1cc(S(=O)(=O)N2CCOCC2)ccc1F)N1CCCc2ccccc21
 : 2.9% | i | -0.7
COC(=O)c1c(N2C(=O)CCC2=O)sc2c1CCCC2
 : -1.3% | i | 0.19

# Next part:
# The line under a structure holds: Hsc70 | MT1-MMP promoter | WNV protease inh
CCOC(=O)c1cnn(-c2ccccc2)c1NC(=O)c1cccs1
 : 1.2% | i | 1.6
C[C@H](NC(=O)NCc1cccs1)C(=O)O
 : 2.7% | i | -0.11
CCCCNc1cc(C)nc(N2CCOCC2)n1
 : 1.6% | i | .
CN1CCC2(CC1)C1CN(C)CC=C1C(C#N)=C(N)C2(C#N)C#N (stereo unspecified)
 : 81% | i | 0.25
N#CCc1c(C#N)c(N)nc(N2CCN(S(=O)(=O)c3ccccc3)CC2)c1C#N
 : -7.1% | i | -0.3
CCOC(=O)CNC(=O)c1sc2nc(C)cc(C)c2c1N
 : -1.8% | i | 0.57
O=C(O)c1ccc(NC(CSCc2ccc(F)cc2)C(=O)O)c([N+](=O)[O-])c1 (stereo unspecified)
 : 2.5% | i | .
COCCN1Cc2cccc(C(=O)Nc3cc(C)cc(C)c3)c2C1=O
 : 1.5% | i | 0.39
CCc1cc(C(=O)OC)c(NC(=O)CCC(=O)O)s1
 : 3.9% | i | -0.42
CC(=O)c1cc(OC(=O)c2ccncc2)ccc1OC(=O)c1ccncc1
 : 6.1% | i | -0.39
O=C(NCCCNC(=O)C(F)(F)C(F)F)C(F)(F)C(F)F
 : 1.7% | i | -0.81
O=c1[nH]cnc2scc(-c3ccc(F)cc3)c12
 : 4.9% | i | -0.25
c1ccc(-c2csc(-n3cnnn3)n2)cc1
 : 0.6% | i | 0.25

# Screening results (PubChem BioAssay)
